# 2A StopGo: lowers the luciferase signal of an FMDV 2A StopGo reporter. Potency, µM (top dose mostly 57.9 µM), for inactives: at the top dose signal change, negative = less light. 410,000 tested, 1.2% active. human cells with a luciferase reporter of 2A StopGo recoding; control for the full effect not named in the record; active = well fitted falling curve with a large enough effect; inconclusive = small, poorly fitted or top-dose-only effect; inactive = no such curve, though single readings can be large or run the other way; tested in HEK293T cells; further: on the % scale 0 is the no-effect control and ±100 the full control effect; nearly all actives have a fitted effect of over 45% in size; luciferase light after 4 h
# Cruzain noTriton: cruzain (T. cruzi) inhibition without detergent; P25779; purified cruzain, Z-FR-AMC fluorescence, no detergent; Potency, µM, for the others: max response, negative = inhibition, most hits filed as inhibitors; 200,000 tested, 2.3% active; AID 1476;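 further: plate controls were enzyme without inhibitor for no effect and buffer without enzyme for full effect; nearly all actives have a fitted effect of over 40% in size; top concentration of the series not given in the record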
# Target sequence (P25779 123-467 limits assumed): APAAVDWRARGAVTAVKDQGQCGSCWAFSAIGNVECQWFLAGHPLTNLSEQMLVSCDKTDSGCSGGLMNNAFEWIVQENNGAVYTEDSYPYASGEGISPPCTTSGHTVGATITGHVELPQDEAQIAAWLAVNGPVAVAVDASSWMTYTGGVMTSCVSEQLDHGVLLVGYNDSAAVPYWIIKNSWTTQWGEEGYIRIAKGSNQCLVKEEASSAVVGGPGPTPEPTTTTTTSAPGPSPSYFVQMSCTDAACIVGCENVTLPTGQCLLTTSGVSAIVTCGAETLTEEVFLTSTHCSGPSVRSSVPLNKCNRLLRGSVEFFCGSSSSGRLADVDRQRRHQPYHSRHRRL
#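 Detergent-free condition (0.00005% Triton X-100) in acetate buffer pH 5.5 with DTT. 1.5 nM enzyme and compound were pre-mixed 15 min, then 2 uM Z-FR-AMC substrate added; reaction progress from fluorescence change between first and third reads (60 s).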
# RE007 growth inh: less growth of the S. pombe RE007 Vpr strain; S. pombe RE007 Vpr strain, BacTiter-Glo ATP luminescence, 24 h; control for the full effect not named in the record; Potency, µM (doses to about 92.2 µM), for inactives: at the top dose activity change, negative = less growth; 360,000 tested, 0.21% active; AID 651644; active = well fitted falling curve with a large enough effect; inconclusive = small, poorly fitted or top-dose-only effect; inactive = no such curve, though single readings can be large or run the other way;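 further: on the % scale 0 is the no-effect control and ±100 the full control effect; nearly all actives have a fitted effect of over 50% in size; the assay follows cell death caused by Vpr and the record does not say whether a fall means rescue or toxicity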
#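 Fission yeast strain RE007, carrying one chromosomally integrated HIV-1 vpr copy, was seeded at OD 0.01 in PMG+AL medium with 23 nL pinned compound. After 24 h at 30 °C and 99% humidity, viability was read by BacTiter-Glo luminescence.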
# Lassa entry inh: blocks Lassa virus binding to or entry into cells; Lassa virus pseudotype entry inhibition, cell reporter; control for the full effect not named in the record; Potency, µM (titrated, usually from 37.9 µM), for inactives: top-dose activity change, negative = inhibition, most hits filed as inhibitors; 300,000 tested, 1.2% active; AID 540256; active means well fitted inhibition curve with a large enough effect; inconclusive means small, poorly fitted or top-dose-only effect, or effect the other way; inactive means flat fitted curve, though single readings scatter; tested in HEK293 cells; further: on the % scale 0 is the no-effect control and ±100 the full control effect; nearly all actives have a fitted effect of over 50% in size; luciferase read-out
# Cruzain Triton: inhibitors of Trypanosoma cruzi cruzain with detergent; P25779; 200,000 tested, 0.43% active; purified cruzain, Z-FR-AMC fluorescence, 0.01% Triton; Potency, µM, without a hit: max response, negative = inhibition, hits mostly inhibitors;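 further: plate controls were neutral wells for no effect and buffer without enzyme for full effect; nearly all actives have a fitted effect of over 40% in size; top concentration of the series not given in the record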
#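 Sodium acetate buffer (100 mM, pH 5.5) containing 5 mM DTT and 0.01% Triton X-100 hosted 1.5 nM cruzain and test compound for 15 min at room temperature. Cleavage of 2 uM Z-FR-AMC was then tracked by fluorescence.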
# Marburg entry inh: Marburg virus entry inhibition | Marburg virus pseudotyped entry inhibition, cell reporter; control for the full effect not named in the record; about a third of the inactives were read at about 46 µM | Potency, µM (highest dose often 37.8 µM), without a hit: at the top dose activity change, negative = inhibition, most hits filed as inhibitors | 300,000 tested, 1.8% active | AID 540276; active = well fitted inhibition curve with a large enough effect; inconclusive = small, poorly fitted or top-dose-only effect, or effect the other way; inactive = flat fitted curve, though single readings scatter; tested in HEK293 cells; about a fifth of its hits are not listed in these tables; further: on the % scale 0 is the no-effect control and ±100 the full control effect; luciferase read-out
# SARS PLpro yeast: inhibitors of SARS-CoV papain-like protease in yeast; S. cerevisiae expressing SARS-CoV PLpro, growth rescue; control for the full effect not named in the record; Potency, µM (highest dose often 32.9 µM), without a hit: at the highest dose activity, positive = growth rescue; 330,000 tested, 0.19% active; active means well fitted rising curve with a large enough effect; inconclusive means small, poorly fitted or top-dose-only effect; inactive means no such curve, though single readings can be large or run the other way; further: 0% is about no effect; nearly all actives have a fitted effect of over 55% in size; growth read by luminescence after 48 h
# NS1 function inh: influenza NS1 inhibition; S. cerevisiae slowed by influenza A NS1, growth recovery by OD600; Potency, µM (top dose mostly 46.1 µM), for the others: top-dose activity, positive = more growth; 270,000 tested, 0.4% active; active means well fitted rising curve with a large enough effect; inconclusive means small, poorly fitted or top-dose-only effect; inactive means no such curve, though single readings can be large or run the other way; further: nearly all actives have a fitted effect of over 50% in size
#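 A cell-based growth assay was used: compounds that relieve NS1-induced slow growth of budding yeast raise OD600. Assay medium was yeast nitrogen base with ammonium sulphate and -URA supplement, pH 6.0, with 2% galactose.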
# The depositor's hits bear a star; u = inconclusive; x = not tested or not shown; [ ] = another dose, or the depositor's remark. Unless noted, the call rests on the fitted dose curve; in most records, active means well fitted curve in the direction sought with a large enough effect; inconclusive means small, poorly fitted or top-dose-only effect, or another doubt; inactive means no such curve, though single readings can be large; an effect the other way counts as inactive or inconclusive. Potency means the concentration at half of the fitted maximal effect.
SMILES,2A StopGo,Cruzain noTriton,RE007 growth inh,Lassa entry inh,Cruzain Triton,Marburg entry inh,SARS PLpro yeast,NS1 function inh
CCOC(=O)c1ccc(NC(=S)N2CCSC2c2c(F)cc(F)cc2F)cc1 (stereo not drawn),-29%,6%,-4%,u,-8.5%,-11%,-28%,4%
CCCCN(C)CC(O)Cn1cc(/C=C/C(=O)c2ccc(OCC)cc2)c2ccccc21 (stereo not drawn),-21%,-7%,x,u,-12%,u,-1%,3%
O=C(NCc1nc2ccccc2[nH]1)C1=C[C@@H](c2csc3ccccc23)C[C@@H](OCc2ccc(CO)cc2)O1,-13%,x,-8%,x,x,x,-1%,16%
Cc1sc2ncnc(-n3nnc4ccccc43)c2c1C,-8%,x,-5%,x,x,x,0%,-2%
COc1cc(C(=O)NCc2ccco2)c(Br)c(OC)c1OC,x,9%,16%,18%,6.9%,4%,0%,-1%
CCOC(=O)CNC(=O)c1ccc(Cl)s1,0%,x,-8%,u,x,-5%[46.1 µM],0%,2%
O=C(c1ccc(C(F)(F)F)cc1)C1CCCN(C(=O)c2csnn2)C1 (stereo not drawn),-8%,x,-4%,x,x,x,-2%,3%
[O-]c1c[n+](-c2ccc(-[n+]3cc([O-])on3)cc2)no1,4%,x,-7%,10%,x,11%[46.1 µM],1%,1%
COc1ccccc1NC(=O)CSc1nnc(C2CCCCC2)n1C,-14%,8%,12%,1%,5.3%,-18%,6%,u
CC(=O)Nc1ccc(N2C(=O)c3cccc(NC(C)=O)c3C2=O)cc1,9%,4%,11%,-3%,-1.6%,0%[46.1 µM],6%,1%

# Laid out differently: results already given.
Compound	2A StopGo	Cruzain noTriton	RE007 growth inh	Lassa entry inh	Cruzain Triton	Marburg entry inh	SARS PLpro yeast	NS1 function inh
CCOC(=O)c1ccc(NC(=S)N2CCSC2c2c(F)cc(F)cc2F)cc1 (stereo not drawn)	-29%	6%	-4%	u	-8.5%	-11%	-28%	4%
CCCCN(C)CC(O)Cn1cc(/C=C/C(=O)c2ccc(OCC)cc2)c2ccccc21 (stereo not drawn)	-21%	-7%	x	u	-12%	u	-1%	3%

# New compounds follow.
SMILES,2A StopGo,Cruzain noTriton,RE007 growth inh,Lassa entry inh,Cruzain Triton,Marburg entry inh,SARS PLpro yeast,NS1 function inh
Cc1ccc(OCCCCNC(C)c2ccccc2)c(C)c1 (stereo not drawn),-29%,x,18%,u,x,11µM*,1%,-19%
O=C(Cn1cnc2ccccc2c1=O)Nc1nnc(SCc2ccc(Cl)cc2)s1,-12%,x,20%,x,x,x,1%,1%
Fc1ccccc1N1CCN(c2nc3ccccc3n3nnnc23)CC1,0%,u,-12%,-3%,-4.0%,u,-1%,-16%
Cc1oc(-c2ccc(Cl)cc2)nc1CN1CCCC(C(=O)NCc2ccccc2)C1 (stereo not drawn),u,7%,x,27%[46.1 µM],0.9%,-3%[46.1 µM],x,x
COc1cccc(C2c3c(oc4ccc(F)cc4c3=O)C(=O)N2CCN2CCOCC2)c1OC (stereo not drawn),-23%,4%,7%,x,-2.3%,4%,3%,-3%
Cn1c(SCC(=O)Nc2ccccc2F)nnc1-c1cccnc1,13%,-3%,6%,x,1.2%,x,12%,u
CCCCN(CCCNC(=O)c1c(C)oc2nc[nH]c(=O)c12)Cc1ccccc1,-6%,-3%,x,26%[46.1 µM],-1.4%,1%[46.1 µM],x,x
COc1cc(/C=N/NC(=O)c2cc(-c3cccn3C)n[nH]2)cc(OC)c1OC,u,6%,3%,-3%,-1.7%,-9%,7%,9%
O=c1c2[nH]c3ccc(Cl)cc3c2ncn1CCN1CCCCC1,u,-12%,-8%,8%,-4.8%,2%,7%,5%
CCOC(=O)/C(=N\Nc1ccccc1Cl)N1CCN(Cc2ccccc2)CC1,u,3%,138%,-3%,-3.9%,-3%,-34%,-25%
COc1ccc(Cc2nc(-c3ccc(Br)o3)no2)cc1OC,16%,-5%,-12%,x,-1.1%,x,-2%,-52%
CCn1cc(S(=O)(=O)NCCc2ccccc2OC)cn1,-2%,x,-12%,x,x,x,2%,6%
Cc1ccccc1OCC(=O)N=Nc1c(O)n(C)c2ccccc12,-23%,x,6%,x,x,x,0%,-4%
CC(=O)N1CCN(S(=O)(=O)c2cccc(C(=O)NC3CCC(C)CC3)c2)CC1 (stereo not drawn),7%,x,15%,-16%,x,-7%[46.1 µM],0%,x
Cc1ccc(NC(=O)CCSc2ccccn2)cc1,-9%,0%,-22%,4%,-0.8%,u,5%,-7%
COc1ccc(Nc2nnc(SCC(=O)Nc3ccc4[nH]c(=O)[nH]c4c3)s2)cc1,-1%,x,4%,11%,x,1%,2%,18%
O=C1NC(Cc2ccccc2)C(=O)N1Cc1cc([N+](=O)[O-])cc2c1OCOC2 (stereo not drawn),2%,x,20%,10%,x,5%[46.1 µM],-1%,x
CC(=O)Nc1cccc(C(=O)OCCCOc2ccc(F)cc2)c1,12%,x,6%,-1%[46.1 µM],x,0%[46.1 µM],-17%,-83%
N/C(=N/OC(=O)c1ccc(Cl)cc1)c1ncc([N+](=O)[O-])s1,21%,x,-10%,x,x,x,-6%,-5%
O=C(O)c1cccc2c1/C(=N/O)c1ccccc1-2,-2%,x,-17%,-1%,x,5%[46.1 µM],x,x
Cc1ccc(NC(=O)CSc2nc(O)cc(=O)n2-c2ccc(C)cc2)cc1,-4%,x,0%,x,x,x,0%,18%
Cc1cccc(-n2ncc3c(N4CCN(c5ccccc5)CC4)ncnc32)c1,u,-5%,x,-47%[46.1 µM],7.1%,x,x,x
CC1(C(=O)Nc2ccc(S(=O)(=O)Nc3ncccn3)cc2)CCCC1,2%,x,2%,4%,x,3%,1%,x
CC(C)(C)c1nc(Sc2ccc([N+](=O)[O-])cn2)n[nH]1,-23%,x,-15%,x,x,x,-5%,-4%
O=C(NNC(=O)c1cccs1)Nc1cccc(Cl)c1,56%[activator],-13%,0%,2%,1.1%,-1%,4%,-4%
Cn1c(/C(C#N)=C/c2ccc(O)cc2)nc2ccccc21,16%,x,1%,x,x,x,-1%,-8%
CC1CCc2nc3ncn(Cc4cccc(F)c4)c(=O)c3cc2C1 (stereo not drawn),24%,-4%,x,-5%[46.1 µM],-0.8%,x,x,x
Cc1nn(S(=O)(=O)c2ccc([N+](=O)[O-])cc2)c(C)c1Sc1ccccc1,-26%,x,12%,25%[14.3 µM],x,1%,x,x
COc1ccccc1-c1nnc(C2CCN(C(=O)c3ccccc3C)CC2)o1,6%,-1%,x,2%[46.1 µM],-0.7%,u,x,x
Cc1cccc(NC(=O)CSc2nnc(CNC(=O)c3cccs3)o2)c1C,1%,x,0%,6%,x,u,-1%,x

# Eleven structures out of the list, arranged by length of the SMILES, descending:
SMILES,2A StopGo,Cruzain noTriton,RE007 growth inh,Lassa entry inh,Cruzain Triton,Marburg entry inh,SARS PLpro yeast,NS1 function inh
O=C1NC(Cc2ccccc2)C(=O)N1Cc1cc([N+](=O)[O-])cc2c1OCOC2 (stereo not drawn),2%,x,20%,10%,x,5%[46.1 µM],-1%,x
N/C(=N/OC(=O)c1ccc(Cl)cc1)c1ncc([N+](=O)[O-])s1,21%,x,-10%,x,x,x,-6%,-5%
Cc1ccc(NC(=O)CSc2nc(O)cc(=O)n2-c2ccc(C)cc2)cc1,-4%,x,0%,x,x,x,0%,18%
Cc1cccc(-n2ncc3c(N4CCN(c5ccccc5)CC4)ncnc32)c1,u,-5%,x,-47%[46.1 µM],7.1%,x,x,x
COc1ccccc1-c1nnc(C2CCN(C(=O)c3ccccc3C)CC2)o1,6%,-1%,x,2%[46.1 µM],-0.7%,u,x,x
Cc1cccc(NC(=O)CSc2nnc(CNC(=O)c3cccs3)o2)c1C,1%,x,0%,6%,x,u,-1%,x
CC1CCc2nc3ncn(Cc4cccc(F)c4)c(=O)c3cc2C1 (stereo not drawn),24%,-4%,x,-5%[46.1 µM],-0.8%,x,x,x
CC(=O)Nc1cccc(C(=O)OCCCOc2ccc(F)cc2)c1,12%,x,6%,-1%[46.1 µM],x,0%[46.1 µM],-17%,-83%
Cn1c(/C(C#N)=C/c2ccc(O)cc2)nc2ccccc21,16%,x,1%,x,x,x,-1%,-8%
O=C(O)c1cccc2c1/C(=N/O)c1ccccc1-2,-2%,x,-17%,-1%,x,5%[46.1 µM],x,x
O=C(NNC(=O)c1cccs1)Nc1cccc(Cl)c1,56%[activator],-13%,0%,2%,1.1%,-1%,4%,-4%

# Further compounds:
SMILES,2A StopGo,Cruzain noTriton,RE007 growth inh,Lassa entry inh,Cruzain Triton,Marburg entry inh,SARS PLpro yeast,NS1 function inh
CC(Oc1ccccc1)C(=O)NCc1cccnc1 (stereo not drawn),15%,4%,10%,8%,3.4%,4%,-13%,-1%
Cc1cccc(NS(=O)(=O)c2cccc3nonc23)c1,12%,x,16%,2%[46.1 µM],x,u,0%,x
CC1CN(C(c2ccco2)c2sc3ncnn3c2O)CC(C)O1 (stereo not drawn),-21%,-8%,-8%,x,0.2%,x,-6%,-3%
Cc1cc(NS(=O)(=O)c2cc(Cl)sc2Cl)no1,2%,x,2%,14%,x,2%,-4%,0%
COc1ccc(C2CC(C(F)(F)F)n3ncc(C(=O)Nc4c(C)n(C)n(-c5ccccc5)c4=O)c3N2)cc1 (stereo not drawn),x,26%,-1%,1%,-1.1%,17%,7%,-5%
COc1ccccc1-c1nc2c(c(SCC(=O)Nc3c(C)cc(C)cc3C)n1)Cc1c(CO)cnc(C)c1O2,-15%,-10%,x,0%[46.1 µM],-0.6%,x,x,x
COc1ccccc1NC(=O)COc1ccc2c(c1)OCO2,39%[activator],x,-3%,x,x,x,1%,-12%
Cc1cccc(C)c1NC(=O)c1ccc(-n2cncn2)nc1,-12%,0%,15%,12%,1.5%,0%,2%,-5%
CCOc1ccc(C(=O)NCC(c2ccc(Cl)cc2)N2CCCCC2)cc1 (stereo not drawn),-16%,-4%,x,-8%[46.1 µM],0.1%,u,x,x
